gsp agonist = gsp mutant agonism; 340,000 compounds, 0.13% hits; gsp mutant cells, cAMP HTRF, 30 min; control for the full effect not named in the record; AID 624287; Potency, µM (series often up to 76.9 µM), without a hit: top-dose activation (cAMP increase), hits mostly activators; active = well fitted activation curve with a large enough effect; inconclusive = small, poorly fitted or top-dose-only effect, or another doubt; inactive = no such curve, though single readings can be large or run the other way; cell line not stated here;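 also: phosphodiesterase inhibitor Ro 20-1724 added with compounds to block cAMP breakdown; potency is read from the fitted curve at half-maximal effect; nearly all actives have a fitted effect of over 60% in size; about a fifth of the inactives were tested at one dose only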
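Cells stably selected in G418 were plated at 2000/well, grown 16-24 hr, then given compounds in DMSO with the PDE inhibitor […] (300 uM solution added) for 30 min at 37C; cAMP was read by HTRF.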
gsp antagonist = gsp mutant antagonism; 340,000 compounds, 0.4% hits; gsp-mutant cells, cAMP HTRF, 30 min; control for the full effect not named in the record; Potency, µM (titrated, usually from 76.9 µM), for the others: top-dose activity change, negative = inhibition, actives largely listed as inhibitors; AID 624288; active = falling curve of any shape with a large fitted effect; inconclusive = falling curve, mostly with a smaller effect; inactive = flat or rising curve; cell line not stated here;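 also: intracellular cAMP measured with PDE inhibitor Ro 20-1724 present during compound exposure; potency is read from the fitted curve at half-maximal effect; % is scaled to controls: 0 for no effect and ±100 for the full control effect; nearly all actives have a fitted effect of over 65% in size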
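Cells in G418 medium, seeded 16-24 h, 37C; buffer exchange to DPBS + 1 mM CaCl2, 0.5 mM MgCl2, 0.05% BSA; cpds in DMSO + […] (300 uM stock), 30 min 37C; HTRF cAMP detection.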
D2 agonist = agonists of human D2 dopamine receptor (beta-arrestin). 360,000 compounds, 0.084% hits. activation, % (no concentration beside the values). DiscoveRx PathHunter D2 beta-arrestin, luminescence, 90 min; 100% = 57 uM dopamine signal. P14416; in the data active = activation above about 40%; inconclusive = about 15% to 40%; inactive = below about 15%; also: compound concentration not given in the record; the text of the record calls up to 30% inactive
Target sequence (P14416 whole entry, looked up): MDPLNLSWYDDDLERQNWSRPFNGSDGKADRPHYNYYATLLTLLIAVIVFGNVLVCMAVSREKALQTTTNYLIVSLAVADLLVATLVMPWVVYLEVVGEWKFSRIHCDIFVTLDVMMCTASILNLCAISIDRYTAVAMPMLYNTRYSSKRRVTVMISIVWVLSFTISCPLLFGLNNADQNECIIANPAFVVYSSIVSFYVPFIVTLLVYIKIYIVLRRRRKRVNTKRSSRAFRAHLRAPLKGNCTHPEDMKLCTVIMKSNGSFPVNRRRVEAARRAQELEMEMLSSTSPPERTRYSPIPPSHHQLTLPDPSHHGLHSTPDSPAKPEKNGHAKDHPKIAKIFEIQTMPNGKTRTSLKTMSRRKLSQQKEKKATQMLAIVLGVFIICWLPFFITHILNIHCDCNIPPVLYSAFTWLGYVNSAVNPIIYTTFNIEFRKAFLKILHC
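DiscoveRx PathHunter D2 beta-arrestin cells (2,100/well) attached overnight, then compound-stimulated 90 min at 37 C in HBSS/10 mM HEPES/0.1% Tween-20 buffer; beta-galactosidase complementation read by luminescence after 1 h at ambient temperature. Dopamine 57 uM final (EC100) as control.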
D2 PAM = potentiates the human D2 dopamine receptor allosterically; P14416; potentiation, % (concentration not given with the values); DiscoveRx D2 beta-arrestin cells, luminescence, 90 min; 100% = 57 uM dopamine signal; 360,000 compounds, 0.23% hits; active = potentiation of 50% or more; inconclusive = 30% to 50%; inactive = 30% or less;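 also: tested on top of an EC20 dose of dopamine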
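PathHunter D2 cells, attached overnight at 37 deg C, received compound in DMSO plus dopamine at EC20 (50 nM final) for 90 min at 37 deg C. Beta-arrestin recruitment was read as luminescence after 1 h with detection reagent at ambient temperature.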
Six1-Eya2 inh = Six1/Eya2 interaction inhibition | 360,000 compounds, 0.56% hits | activity change, % (no concentration beside the values) | AID 651725 | AlphaScreen GST-Six1/His-Eya2 binding, biochemical; hits give low values; control for the full effect not named in the record; in the data active = activity change below about -65%; inconclusive = about -30% to -65%; inactive = above about -30%; also: % is scaled to controls: 0 for no effect and ±100 for the full control effect
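AlphaScreen with GST-Six1 and His-Eya2 (5X mix: 250 nM and 500 nM), glutathione donor and nickel acceptor beads; buffer 50 mM Tris pH 8.0, 300 mM NaCl, 1 mM TCEP; 1 h at 37 C in the dark.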
CtBP-E1A inh = CtBP/E1A binding inhibition; 340,000 compounds, 0.49% hits; activity change, % (concentration not given with the values); AlphaScreen GST-E1A/His-CtBP binding, 1536-well; hits give low values; control for the full effect not named in the record; in the data active means activity change below about -65%; inconclusive means about -30% to -65%; inactive means above about -30%; also: % is scaled to controls: 0 for no effect and ±100 for the full control effect
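In 5 uL wells, 23 nL compound meets equimolar GST-E1A and His-CtBP (5X stock 125 nM each) for 2 h, 37 °C. Beads (5X, 50 ug/mL) then 1 h, 37 °C, dark.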
Numbers without * were called inactive; [ ] = dose if it differs, or a comment.

For COc1ccc(-c2cc(=O)oc3cc4occ(C)c4cc23)cc1 the results were gsp agonist 30.1%, gsp antagonist 0.4%, D2 agonist -1.2, D2 PAM -0.7, Six1-Eya2 inh 2.9 and CtBP-E1A inh 5.3.
Screening CCN=C(NCC)SC1CC(=O)N(c2ccc(F)cc2)C1=O (configuration not stated) returned gsp agonist -66.7%[inhibitor], gsp antagonist 4.7%, D2 agonist -5.7, D2 PAM -4.4, Six1-Eya2 inh 0.0 and CtBP-E1A inh 7.0.
`Nc1ccc(Br)cc1C(NCC(=O)O)c1ccccc1` (configuration not stated) gave gsp agonist -13.9%[15.4 µM], gsp antagonist 0.5%, D2 agonist -3.9, D2 PAM -4.1, Six1-Eya2 inh -4.6 and CtBP-E1A inh -1.4.
Screening CC(NS(=O)(=O)c1ccc2[nH]c(=O)c(=O)[nH]c2c1)C(=O)O (configuration not stated) returned gsp agonist -0.1%[15.4 µM], gsp antagonist 9.2%, D2 agonist -2.6, D2 PAM 0.6, Six1-Eya2 inh 1.2 and CtBP-E1A inh 11.3.
Screening CCOP(=O)(OCC)/C(C#N)=C/c1ccc([N+](=O)[O-])cc1 returned gsp agonist 23.8%, gsp antagonist 10.0%, D2 agonist 2.2, D2 PAM -4.3, Six1-Eya2 inh -2.5 and CtBP-E1A inh -2.3.
CCC(C(=O)NCc1cccs1)n1nc(C)n2c(cc3occc32)c1=O (configuration not stated) was read as gsp agonist 1.2%, gsp antagonist 10.4%, D2 agonist 4.1, D2 PAM -16.6, Six1-Eya2 inh 10.3 and CtBP-E1A inh -8.4.
`Brc1ccc2c(c1)C(c1cccs1)=NNC(c1cccnc1)=N2` gave gsp agonist -0.9%, gsp antagonist -13.3%, D2 agonist -1.0, D2 PAM 1.9, Six1-Eya2 inh -1.5 and CtBP-E1A inh 5.3.
Screening COc1ccc(C)cc1S(=O)(=O)N1CCCC(C(=O)N2CCN(c3ccccc3)CC2)C1 (configuration not stated) returned gsp agonist -67.0%[inhibitor], gsp antagonist -20.3%, D2 agonist -0.5, D2 PAM -13.8, Six1-Eya2 inh -6.6 and CtBP-E1A inh -3.1.
Screening COC(=O)c1c(NC(=O)CSc2nnc(-c3cccnc3)n2Cc2ccco2)sc(C)c1C returned gsp agonist 9.9%, gsp antagonist -4.7%, D2 agonist -1.6, D2 PAM -6.3, Six1-Eya2 inh -11.7 and CtBP-E1A inh -0.7.
Screening Cc1c(C(=O)N(C)CCn2ccnc2C)oc2c(F)cccc12 returned gsp agonist -0.1%, gsp antagonist 11.3%, D2 agonist -5.1, D2 PAM -6.6, Six1-Eya2 inh -4.5 and CtBP-E1A inh -4.4.
FC(F)(F)c1ccccc1NC(=S)N1CCN(c2ncccn2)CC1 was read as gsp agonist -18.5%, gsp antagonist 2.1%, D2 agonist -1.4, D2 PAM -32.9, Six1-Eya2 inh -0.9 and CtBP-E1A inh 1.6.
Screening Cc1ccc(C)c(N2CCN(C(=O)CCc3nc(-c4ccccc4Cl)no3)CC2)c1 returned gsp antagonist inconclusive, D2 agonist 1.6, Six1-Eya2 inh -7.5 and CtBP-E1A inh 1.5.
`C=CCNC(=S)N1CCN(c2ccc([N+](=O)[O-])cc2)CC1` gave gsp agonist 0.2%, gsp antagonist -20.6%, D2 agonist -0.4, D2 PAM -6.1, Six1-Eya2 inh 5.0 and CtBP-E1A inh -15.2.
Screening CN1CCN(c2nc(C#N)cc(-c3ccccc3)n2)CC1 returned gsp agonist 21.7%, gsp antagonist -2.7%, D2 agonist -2.0, D2 PAM -37.9, Six1-Eya2 inh -14.8 and CtBP-E1A inh -1.4.
For CCc1cc(C(=O)N2CCCC(Nc3ccc(F)c(F)c3)C2)n(C)n1 (configuration not stated) the results were gsp agonist -21.6%, gsp antagonist 1.9%, D2 agonist -5.0, D2 PAM -9.6, Six1-Eya2 inh -0.8 and CtBP-E1A inh 10.1.
Screening COc1ccc(-c2nnc(SCC(=O)Nc3cccnc3Cl)n2C)cc1 returned gsp agonist inconclusive, gsp antagonist -1.4%, D2 agonist 0.7, D2 PAM -29.3, Six1-Eya2 inh -4.1 and CtBP-E1A inh 8.2.
For O=C(Cn1nc(-c2ccccc2)ccc1=O)Nc1ccc(N2CCN(C(=O)c3cccs3)CC2)cc1 the results were gsp agonist -21.5%[15.4 µM], gsp antagonist -1.3%, D2 agonist -1.9, D2 PAM -1.6, Six1-Eya2 inh -22.4 and CtBP-E1A inh -2.5.
For Cc1ccc(CC2CC(=O)N(c3cc(Cl)ccn3)C2=O)cc1 (configuration not stated) the results were gsp agonist -0.4%[15.4 µM], gsp antagonist inconclusive, D2 agonist -3.7, D2 PAM -8.3, Six1-Eya2 inh -12.3 and CtBP-E1A inh -2.4.
O=S(=O)(c1ccccc1)N1CCC(O)(CSc2ccc(F)cc2)CC1 was read as gsp agonist -16.7%[15.4 µM], gsp antagonist -21.0%, D2 agonist 5.3, D2 PAM -2.5, Six1-Eya2 inh 2.4 and CtBP-E1A inh -14.2.
Screening Cc1ccc(N2CCN(/N=C/C=C/c3ccccc3)CC2)cc1 returned gsp agonist -16.0%, gsp antagonist -16.6%, D2 agonist -2.7, D2 PAM 2.7, Six1-Eya2 inh -0.9 and CtBP-E1A inh -24.5.
Screening COc1ccc(CCNC(=O)C2(C)CCC(=O)N2Cc2ccc3c(c2)OCO3)cc1OC (configuration not stated) returned gsp agonist 22.3%, gsp antagonist 3.7%, D2 agonist -2.6, D2 PAM -6.0, Six1-Eya2 inh -3.7 and CtBP-E1A inh 3.1.
`O=C(O)CCCn1cc(NC(=O)COc2cc(F)ccc2[N+](=O)[O-])cn1` gave gsp agonist inconclusive, gsp antagonist inconclusive, D2 agonist 3.3, D2 PAM -2.2, Six1-Eya2 inh -3.9 and CtBP-E1A inh 1.3.
Screening CCN(CC)S(=O)(=O)c1cccc(C(=O)Nc2cc3oc4ccccc4c3cc2OC)c1 returned gsp agonist -3.0%, gsp antagonist 14.2%, D2 agonist -2.1, D2 PAM -16.3, Six1-Eya2 inh 2.3 and CtBP-E1A inh -3.1.
c1ccc2nc3[nH]cnc3nc2c1 was read as gsp agonist inconclusive, gsp antagonist 5.8%, D2 agonist -0.5, D2 PAM -22.6, Six1-Eya2 inh -6.1 and CtBP-E1A inh 2.2.
Screening O=C(NCCN1C(=O)S/C(=C/c2ccccc2)C1=O)C1CC(=O)N(Cc2ccccc2)C1 (configuration not stated) returned gsp agonist 13.9%, gsp antagonist -7.4%, D2 agonist -0.8, D2 PAM 1.2 and Six1-Eya2 inh 2.5.
`COc1cc(OC)cc(C(=O)NN(CCC#N)C2=NS(=O)(=O)c3ccccc32)c1` gave gsp agonist 11.7%[15.4 µM], gsp antagonist 8.5%, D2 agonist -1.4, D2 PAM -5.7, Six1-Eya2 inh -25.0 and CtBP-E1A inh -10.8.
Screening O=C(Cc1ccccc1)NNC(=O)c1cccs1 returned gsp agonist 1.6%, gsp antagonist 2.0%, D2 agonist -2.9, D2 PAM -9.4, Six1-Eya2 inh -0.7 and CtBP-E1A inh 3.6.
CC1CN(C(=O)c2ccccc2)OC(c2ccc3c(c2)OCO3)O1 (configuration not stated) was read as gsp agonist -3.0%, gsp antagonist 6.7%, D2 agonist -0.8, D2 PAM -21.8, Six1-Eya2 inh 1.7 and CtBP-E1A inh 12.6.
Cc1cc(SCNC(=O)c2ccccc2)ncn1 was read as gsp agonist -52.8%[inhibitor], gsp antagonist 5.9%, D2 agonist -0.1, D2 PAM 3.1, Six1-Eya2 inh 5.6 and CtBP-E1A inh 15.5.
`Cc1c(C(=O)NCc2ccc(Cl)c(Cl)c2)sc(=O)n1Cc1cccc(F)c1` gave D2 agonist 4.8, D2 PAM -3.6, Six1-Eya2 inh -5.1 and CtBP-E1A inh -6.8.
Screening O=C(c1ccc(Cl)cc1)N(Cc1ccccc1F)N1C(=O)CCCC1=O returned gsp agonist 8.0%, gsp antagonist 5.6%, D2 agonist 9.0, D2 PAM 4.4, Six1-Eya2 inh 4.7 and CtBP-E1A inh -21.4.
`Cc1nc2scc(-c3cccs3)c2c(=O)o1` gave gsp agonist 9.3%, gsp antagonist -3.5%, D2 agonist -2.2, D2 PAM -6.4, Six1-Eya2 inh -1.1 and CtBP-E1A inh 4.7.
`Cc1nn(C)c(C(=O)N/N=C/c2cc3c(cc2Br)OCO3)c1Br` gave gsp agonist -7.5%, gsp antagonist 8.3%, D2 agonist -2.1, D2 PAM 4.9, Six1-Eya2 inh 7.3 and CtBP-E1A inh 5.4.
Cc1cc(-c2nnc(CCC(=O)NCC(C)c3ccccc3)o2)no1 (configuration not stated) was read as gsp agonist 0.2%[15.4 µM], gsp antagonist 6.9%, D2 agonist -3.6, D2 PAM 7.9, Six1-Eya2 inh -3.9 and CtBP-E1A inh 7.8.
Screening Cc1ccc(CCc2nnc(SCC(=O)Nc3cccc(Cl)c3)n2-c2ccccc2)o1 returned gsp agonist -0.3%, gsp antagonist 1.9%, D2 agonist -6.4, D2 PAM -3.4, Six1-Eya2 inh -6.5 and CtBP-E1A inh 0.2.
For O=C(NCc1cccs1)c1ccc2c(c1)ncn2C1CCCC1 the results were gsp agonist -10.0%, gsp antagonist -5.5%, D2 agonist 2.1, D2 PAM -6.9, Six1-Eya2 inh 2.9 and CtBP-E1A inh 0.9.
CCCCC(=O)Nc1ccc(NC(=O)c2ccc([N+](=O)[O-])cc2Cl)cc1OC was read as gsp agonist -14.0%, gsp antagonist -22.2%, D2 agonist 6.1, D2 PAM -2.3, Six1-Eya2 inh -0.8 and CtBP-E1A inh 0.0.
Screening Cc1ccccc1NCC(=O)N/N=C/c1c[nH]c2ccccc12 returned gsp agonist 17.1%, gsp antagonist -4.6%, D2 agonist -1.0, D2 PAM -0.1, Six1-Eya2 inh -5.5 and CtBP-E1A inh -2.3.
FC(F)(F)c1cccc(Cc2noc(CN3CCC(N4CCCCC4)CC3)n2)c1 was read as gsp agonist 3.4%, gsp antagonist 5.1%, D2 agonist 0.3, D2 PAM -5.9, Six1-Eya2 inh 2.9 and CtBP-E1A inh 3.9.
For Cn1c(N2C(=O)CC(Cc3ccccc3)C2=O)nc2ccccc21 (configuration not stated) the results were gsp agonist 1.7%, gsp antagonist 7.0%, D2 agonist 0.0, D2 PAM -18.1, Six1-Eya2 inh -0.3 and CtBP-E1A inh 14.0.
Screening CC1CCN(CCC(=O)Nc2ccc(Cl)cc2)CC1 returned gsp agonist 10.8%[15.4 µM], gsp antagonist 1.9%, D2 agonist -3.5, D2 PAM -3.7, Six1-Eya2 inh 8.8 and CtBP-E1A inh 0.0.
CN1C(=O)CSC1=NC12CC3CC(CC(C3)C1)C2 was read as gsp agonist -16.7%, gsp antagonist -10.0%, D2 agonist -1.4, D2 PAM -9.8, Six1-Eya2 inh 6.4 and CtBP-E1A inh 1.8.

The order is random (roughly 1.4% active in at least one column).
